Yeast UUG start = yeast start codon fidelity modulation | hit rate 0.13% among 350,000 | S. cerevisiae UUG-firefly luciferase reporter, luminescence/redox ratio | activity score, % at 18.7 µM | AID 602363;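 active = replicate mean at a twofold rise or more, about +100% in these data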;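 also: firefly luciferase made from a UUG start codon reports start codon fidelity; reporter light over untreated wells divided by growth signal over untreated wells; some hits fall short of that in this replicate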
Rce1 inh = inhibitors of yeast Ras-converting enzyme; yeast membranes, quenched prenylated peptide cleavage fluorescence; hit rate 0.27% among 290,000; Q03530; calls only;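 active = fall in fluorescence gain of 50% or more versus controls, with final raw signal at or below 3038400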;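 also: plate controls were neutral control wells for no effect and wells lacking membranes for full effect; tested at 10 µM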
Target sequence (Q03530 whole entry, looked up): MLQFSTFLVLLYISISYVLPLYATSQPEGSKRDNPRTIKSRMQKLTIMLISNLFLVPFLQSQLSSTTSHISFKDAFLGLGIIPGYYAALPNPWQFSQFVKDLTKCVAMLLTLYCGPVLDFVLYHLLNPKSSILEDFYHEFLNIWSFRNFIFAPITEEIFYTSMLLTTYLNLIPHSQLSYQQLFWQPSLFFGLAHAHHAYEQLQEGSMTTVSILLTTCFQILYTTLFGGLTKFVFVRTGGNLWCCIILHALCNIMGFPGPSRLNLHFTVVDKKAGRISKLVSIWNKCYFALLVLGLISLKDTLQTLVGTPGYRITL
MT1-MMP act inh = inhibitors of human MT1-MMP activation; P50281; HT1080 RFP-PRO-GFP cells, GFP/RFP ratio fluorescence, overnight; percent of plate control window, DMSO zero; GFP/RFP ratio change, % at 20 µM; hit rate 0.061% among 360,000; AID 651647;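 active = GFP/RFP ratio change of at least 30% with cell ATP level not reduced by more than half and red fluorescence within 50% of control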; also: strong numbers were not always called active
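Test system: HT1080 cells expressing an RFP-PRO-GFP fluorescent reporter construct / Compound dosing: single-point 20 µM compound, 1% DMSO / Schedule: cells overnight before dosing, compound overnight, 37 °C, 5% CO2 / Evaluation: GFP/RFP fluorescence ratio / Control set: DMSO and RFP-L50D-GFP cell wells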
CSC inhib = blocks cancer stem cells. AID 2717. cancer stem cell-like cells viability, luminescence. hit rate 1.1% among 300,000. inhibition, % at 7.5 µM;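 active = mean at 75% or more and at least half the replicates too; tested in HMLE shEcad cells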;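 also: 0% = median of negative and 100% = median of positive control wells; the first replicate is given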
eIF4H inh = inhibitors of RNA binding by human eIF4H | Q15056 | eIF4H fluorescence polarization binding assay | inhibition, % at 35 µM | hit rate 0.94% among 290,000 | AID 2012;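 active = 50% or more with normal probe brightness, or confirmed in later tests; about a fifth of its hits are not listed in these tables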;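 also: calls also rest on retests at 20 µM and on dose response follow-up; 0% = protein and probe with vehicle and 100% = probe without protein; strong numbers were not always called active; many hits fall short of the cut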
Env fusion inh = inhibitors of HIV Env-mediated cell fusion | HeLa-JRFL Env/CEM21 cell fusion, luciferase | inhibition, % at 12.3 µM | hit rate 1.1% among 360,000 | AID 651610;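 active = mean replicate inhibition score of at least 50 and every replicate individually at or above 50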;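 also: 0% = plate neutral controls and 100% = maraviroc near 300 nM; one replicate is shown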
PABP polyA inh = PABP-poly(A) binding inhibition. hit rate 1% among 290,000. P11940. inhibition, % at 35 µM. PABP-poly(A) RNA binding, fluorescence polarization;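 active = 50% or more with normal probe brightness, or confirmed in later tests; about a fifth of its hits are not listed in these tables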;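 also: calls also rest on retests at 20 µM and on dose response follow-up; controls were probe without protein and protein plus probe with vehicle; some compounds called inactive have numbers as strong as hits; many hits fall short of the cut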
Target sequence (P11940 whole entry, looked up): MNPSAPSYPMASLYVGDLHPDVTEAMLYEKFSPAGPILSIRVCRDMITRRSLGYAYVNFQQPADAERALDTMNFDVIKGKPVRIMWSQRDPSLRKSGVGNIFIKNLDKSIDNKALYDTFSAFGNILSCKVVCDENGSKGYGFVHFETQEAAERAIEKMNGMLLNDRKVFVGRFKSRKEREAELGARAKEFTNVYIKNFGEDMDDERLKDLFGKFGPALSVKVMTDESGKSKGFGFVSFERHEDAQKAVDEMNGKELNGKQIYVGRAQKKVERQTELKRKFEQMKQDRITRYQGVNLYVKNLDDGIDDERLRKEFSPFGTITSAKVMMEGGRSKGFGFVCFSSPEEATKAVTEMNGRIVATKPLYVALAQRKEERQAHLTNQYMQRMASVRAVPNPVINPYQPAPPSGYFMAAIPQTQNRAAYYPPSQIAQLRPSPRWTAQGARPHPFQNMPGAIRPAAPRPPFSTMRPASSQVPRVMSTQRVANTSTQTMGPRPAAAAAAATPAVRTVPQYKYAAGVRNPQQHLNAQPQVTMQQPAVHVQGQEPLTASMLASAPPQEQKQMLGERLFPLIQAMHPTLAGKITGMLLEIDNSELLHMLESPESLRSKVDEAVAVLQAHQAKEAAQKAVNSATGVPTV
eIF4H inh retest = further read-out of eIF4H inh, marked with its call; inhibition, %; compound at 20 µM; confirmation average;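 mean of two retest wells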
PABP polyA inh retest = also measured in PABP polyA inh; calls as there; inhibition, %; compound at 20 µM; confirmation repeats;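 mean of two retest wells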
MT1-MMP act inh RFP = further read-out of MT1-MMP act inh, marked with its call; RFP signal change, %; measured here: RFP expression control read;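 0 = vehicle wells; hits needed this value within 50% of zero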
* = called active by the depositor; i = inactive; / = not tested or not shown. Only part of the results is shown; the hit share may differ from the screen's.

SMILES	Yeast UUG start	Rce1 inh	MT1-MMP act inh	MT1-MMP act inh RFP	CSC inhib	eIF4H inh	Env fusion inh	PABP polyA inh	others
Cc1ccc(NC(=O)c2c(F)cccc2Cl)cc1S(=O)(=O)N1CCOCC1	-6.0	/	-5.6	0.8	/	/	-1.6	/
Cc1ccc(NC(=O)c2ccc(Cl)c(S(=O)(=O)N3CCCCC3)c2)nc1	-8.7	/	-2.5	-23.4	-9.1	/	11.9	/
O=C(Cc1ccc(N2CCNC2=O)cc1)N1CCCC(Nc2ccc(F)c(F)c2)C1 (configuration not stated)	-7.2	i	-7.4	-13.7	83.5*	-5.6	-71.3	-1.3
Nc1nc(CSc2ncn(-c3ccccc3)n2)cs1	/	i	3.4	6.9	/	1.1	/	4.5
CC(C)(CNC(=O)c1ccc(Br)o1)N1CCOCC1	-9.1	i	-0.2	3.5	-16.1	7.7	-9.5	2.4
CC1CCN(C(=O)c2ccc(NC(=O)c3ccccc3)cc2)CC1	-18.3	i	2.4	2.2	-5.4	-10.9	-2.7	6.5
Cc1cc(-c2n[nH]c(=S)n2/N=C/c2ccc(C)s2)n[nH]1	/	i	2.2	3.8	-13.2	-4.3	20.0	-9.5
Cc1ccc(NC(=O)CNS(=O)(=O)c2ccc(F)cc2)cc1C	-12.9	i	0.2	-0.5	-10.7	13.2	-2.7	-0.2
COc1cccc(NC(=O)CCS(=O)(=O)c2ccc3c(c2)oc(=O)n3C)c1	-27.5	i	0.4	4.0	3.2	-6.1	2.7	-5.7
CCc1ccc2nc3nc(C)cc(C)c3c(N)c2c1	-9.3	i	-51.3	0.8	-19.0	71.4	/	-6.5	eIF4H inh retest=2.4;PABP polyA inh retest=-1.5
N=C1/C(=C\c2ccc(-c3ccc(C(=O)O)cc3)o2)C(=O)N=C2SC=C(c3ccccc3)N12	-8.4	i	-19.1	0.1	/	69.5*	6.4	46.0	eIF4H inh retest=56.3*;PABP polyA inh retest=42.9
CCOc1ccc2nc(NCCO)[nH]c2c1	-10.7	i	4.8	0.7	-24.8	-12.2	/	-6.2
COCCn1c(=NC(=O)C(C)(C)C)sc2cc([N+](=O)[O-])ccc21	/	i	0.0	0.3	20.1	-5.0	-4.0	-4.4
Cc1ccnc(NC(=O)CNC(=O)c2sc3ccccc3c2Cl)c1	-25.4	i	3.2	3.8	1.6	/	-89.3	/
O=C(Nc1ccccc1C(=O)N1CCCCC1)c1cc(F)c(F)cc1Cl	-21.1	i	-4.6	0.7	-7.0	-2.5	-16.2	-4.1
O=C(NCCc1ccco1)C(=O)NCC1OCCCN1S(=O)(=O)c1cc(F)ccc1F (configuration not stated)	0.5	i	-0.4	2.4	-0.8	-0.1	-6.3	4.8
CC(=O)N(CC1CCCO1)c1nnc(-c2ccccn2)s1 (configuration not stated)	-1.6	i	3.1	4.0	4.7	6.1	/	-4.6
O=C(OCc1cc(Cl)ccc1OC(F)F)c1ccc([N+](=O)[O-])o1	/	i	/	/	3.0	4.9	/	28.7
COc1ccc(OC(C)C(=O)N(C)Cc2nc(-c3ccc(OC)cc3)no2)cc1 (configuration not stated)	-7.8	i	3.5	-14.4	3.5	2.9	43.9	0.0
CC(C)CCN1NC2(CCC(C)CC2)NC1=S (configuration not stated)	-17.4	i	1.6	4.2	-9.6	-12.5	-13.6	7.0
CN(C)c1ccc(CNC(=O)C2Cc3c(-c4cccc(C(N)=O)c4)ccnc3O2)cc1 (configuration not stated)	8.2	/	0.5	-1.3	/	/	6.0	/
CCCCC12CN3CCN(CC(C3)/C1=N\NC(=O)c1ccccc1N)C2	-17.4	i	-5.9	-2.3	-4.4	-6.7	32.6	-2.2
c1ccc2c3n(nc2c1)CCCCO3	2.6	/	/	/	14.2	/	-29.3	/
Cc1cnc(C(=O)OC(C)C(=O)Nc2ccc(Oc3ccccc3)cc2)cn1 (configuration not stated)	-9.6	/	2.2	0.1	11.4	/	/	/
CC(=O)Nc1ccc(-n2c(C)ccc2-c2ccccc2)cc1	-3.4	i	0.4	0.4	-1.0	-12.0	13.1	-0.6
CCOc1ccc(-c2c[n+](=O)c3c(n2[O-])CCCC3)c(OCC)c1	-8.7	i	1.1	4.5	-21.7	16.3	-104.5	3.8
O=C(Nc1ccccc1)C1=C(O)CC(c2ccoc2)CC1=Nc1ccccc1 (configuration not stated)	/	i	-6.9	-1.2	11.4	21.8	/	5.5
CC1CN(CC(O)COc2ccc(C(C)C)cc2)CC(C)O1 (configuration not stated)	4.8	i	3.8	-2.4	43.9	-9.5	12.8	-4.1
CCc1ccc(OC)c(S(=O)(=O)Nc2ccc(Cc3ccncc3)cc2)c1	-4.9	i	-7.5	-27.7	22.8	-3.7	4.9	3.4
COC(=O)/C(=C/c1cccc([N+](=O)[O-])c1)NC(=O)c1ccc(OC)cc1	-23.3	i	-0.3	-2.2	-3.3	2.1	-18.8	-5.2
Cc1nc(N2CCN(C(c3ccccc3)c3ccccc3)CC2)[nH]c(=O)c1C	4.2	i	-3.1	-1.8	/	-5.6	-14.1	-7.7
CN(C)C(=O)CCc1ccc2c3c([nH]c2c1)[C@]1(C)[C@@H](C(=O)N2CCCCC2)C[C@H](CC(=O)NCCC2=CCCCC2)C(=O)N1CC3	-4.9	/	-1.4	-1.8	/	/	-26.2	/
Cc1ccc(C(=O)C(C)Sc2nnc(N)s2)cc1 (configuration not stated)	/	i	-0.2	-2.0	-0.8	-3.0	-3.4	-0.5
OCCNCc1cc(Br)ccc1OCc1ccc(F)cc1	/	i	-0.4	-0.6	1.1	-7.6	-11.8	-0.2
COC(=O)c1ccc(-n2nnnc2SCC(=O)N2CCCCC2)cc1	9.0	i	-0.2	1.1	/	-9.9	-34.2	-3.8
CCC(=O)N1CCC2(CC1)Oc1ccc(F)cc1C(=O)C21CC(c2ccc(Cl)cc2)=NO1 (configuration not stated)	-11.6	i	-1.6	-0.5	14.5	-12.2	-42.7	0.7
CN1CCN(c2ccc(Cl)cc2NC(=O)c2ccc(S(=O)(=O)N(C)C)cc2)CC1	-9.4	i	-7.0	-11.6	-3.5	6.1	-57.6	5.1
CC(=O)C1=C(C)N(Cc2ccccc2)C(=O)N[C@@H]1c1cccc(C(F)(F)F)c1	-16.1	i	1.5	-6.2	4.1	-3.6	7.2	2.0
C=CCNC(=O)c1ccccc1NC(=O)COc1ccc(OC)cc1	/	i	-1.5	0.8	3.8	0.3	-1.4	-6.8
Cc1ccc(N(Cc2ccc(C(=O)NCCSc3ccccn3)cc2)S(C)(=O)=O)cc1C	-2.9	i	-4.6	-0.6	/	-12.3	0.2	3.9
CN(C(=O)CSc1nc2ccccc2c(=O)n1C)C1CCS(=O)(=O)C1 (configuration not stated)	-9.2	/	2.7	-4.9	-2.0	/	/	/
CCOCc1c(C(=O)OCC(=O)/C(C#N)=C(\C)N)oc2ccccc12	/	i	0.0	2.7	-3.4	18.6	17.6	13.9
O=C(NN1C(=O)c2ccccc2NC1c1ccco1)c1ccc(Br)cc1 (configuration not stated)	-12.2	i	-1.9	3.3	-1.1	-1.6	-8.0	0.7
O=[N+]([O-])c1cccc(CN2[C@@H](Cc3ccccc3)COCCS2(=O)=O)c1	-19.4	i	1.5	2.0	4.8	/	41.2	/
CN(C)CC(C)(C)CNC(=O)C1CCN(CCCc2ccccc2)CC1	-4.4	i	1.0	4.3	-11.5	12.3	-3.2	18.3
COc1ccc(Cl)cc1C1=CC(=O)C[C@H](c2ccc(F)cc2)C1	-9.7	/	2.6	0.1	25.6	/	-16.1	/
CCCNS(=O)(=O)/C=C/c1ccccc1	/	i	-0.2	2.9	-15.0	-6.3	2.4	-5.3
CCOC(=O)C1=C[C@@H](C(C)(C)C)N(S(=O)(=O)c2ccc(C)cc2)[C@H]1c1ccc(C)cc1	-13.9	/	-5.0	-28.5	/	/	18.5	/
CCC(=O)N1CCc2cc(Br)cc(S(=O)(=O)C3(C(=O)OC)CC3)c21	-0.8	i	-0.7	7.6	1.2	-10.8	/	-1.6
O=C1c2ccc(-c3ccc(F)cc3OCc3ccccc3)cc2S(=O)(=O)c2cccc(C(=O)N3CCN(c4ncc(Cl)cc4Cl)CC3)c21	-12.4	/	11.2	-7.4	/	/	-3.3	/
COc1ccc(NC(=O)C(CCS(C)(=O)=O)N2C(=O)c3ccccc3C2=O)cc1 (configuration not stated)	-11.6	i	1.0	9.2	-2.1	-8.7	-53.2	1.6
Cc1ccc(-n2cc3c(=O)n(C)c(=O)n(C)c3c2)cc1C	4.3	i	-5.7	-1.9	0.4	2.0	/	-17.6
COC(=O)c1ccccc1NC(=O)CSc1nnc(Cc2ccc(Cl)cc2)o1	-9.4	i	-6.1	2.4	-4.1	-2.7	16.0	4.6
COc1ccc(CCC(=O)Nc2cnc3ccccc3c2)cc1	-10.6	i	0.9	2.2	-6.5	-2.4	-40.0	1.6
c1ccc(Cn2nnc3c(NCc4ccc5c(c4)OCO5)ncnc32)cc1	-18.6	i	0.8	-0.5	14.1	6.6	-2.5	-6.1
COc1ccccc1/C=C(/C(=O)OCC(N)=O)c1ccccc1	6.1	i	1.4	-0.7	-0.3	4.7	-5.3	4.0
COC(=O)c1cc(COC(=O)c2nc3nc(C)cc(C)n3n2)oc1C	/	i	1.9	5.2	-1.7	25.0	3.3	-2.1
COc1ccc(/C=N/Nc2ccc(C(F)(F)F)cc2[N+](=O)[O-])cc1	/	i	4.5	3.2	-21.4	-6.7	-9.6	2.7
CCc1cc(=O)oc2cc(C)cc(OC(C)C(=O)NCCN3CCOCC3)c12 (configuration not stated)	5.0	i	-1.3	0.6	-2.4	/	-30.3	/
O=C(C1=C[C@H](C2CC2)C[C@H](OCc2ccc(CO)cc2)O1)N1CCN(Cc2ccccc2)CC1	-5.7	i	5.0	-7.3	-11.0	-9.4	26.9	-0.3

The list goes on:
SMILES	Yeast UUG start	Rce1 inh	MT1-MMP act inh	MT1-MMP act inh RFP	CSC inhib	eIF4H inh	Env fusion inh	PABP polyA inh	others
Cc1cc(Br)ccc1NC(=O)CNC(=O)CSc1n[nH]c(N)n1	-19.1	i	4.3	6.0	-5.1	-8.3	-34.4	-7.4
Fc1ccc(CN(Cc2ccccc2)C(c2cccs2)c2nnnn2C2CCCCC2)cc1 (configuration not stated)	-20.7	i	-19.5	-22.3	16.4	-9.9	/	-1.2
CCn1cnc2sc(C(=O)N3CCN(Cc4ccc5c(c4)OCO5)CC3)c(C)c2c1=O	/	i	/	/	8.1	-8.3	/	-1.1
Cc1cccc(NS(=O)(=O)c2nnc(NC(=O)c3ccc(Cl)cc3)s2)c1	-12.7	i	3.4	-0.4	21.5	-8.4	-0.3	-6.7
O=S1(=O)CC(O)C(N=Nc2c(O)n(Cc3ccccc3)c3ccccc23)C1 (configuration not stated)	-15.5	i	1.2	0.8	-11.5	-20.9	9.5	8.7
O=c1[nH]c(=S)[nH]nc1Cc1ccc(Cl)c(Cl)c1	-27.2	i	-1.3	2.2	7.5	-7.8	5.7	-1.1
Cn1c(=O)c(-c2ccccc2)c(O)c2ccccc21	/	i	-1.6	3.4	/	-5.1	-2.5	36.3
N#CC(=Nc1ccccc1)c1ccccc1	11.5	/	3.5	3.7	/	/	-13.8	/

3 records picked at random from those above:
SMILES	Yeast UUG start	Rce1 inh	MT1-MMP act inh	MT1-MMP act inh RFP	CSC inhib	eIF4H inh	Env fusion inh	PABP polyA inh	others
Cc1cccc(NS(=O)(=O)c2nnc(NC(=O)c3ccc(Cl)cc3)s2)c1	-12.7	i	3.4	-0.4	21.5	-8.4	-0.3	-6.7
O=S1(=O)CC(O)C(N=Nc2c(O)n(Cc3ccccc3)c3ccccc23)C1 (configuration not stated)	-15.5	i	1.2	0.8	-11.5	-20.9	9.5	8.7
N#CC(=Nc1ccccc1)c1ccccc1	11.5	/	3.5	3.7	/	/	-13.8	/

Assay outcomes (PubChem)
